# High-throughput results as filed in PubChem BioAssay.
# ClpP mod: qHTS Assay for Activators of ClpP | purified B. subtilis ClpP, FRET peptide cleavage, 20 min | Potency, µM (highest dose often 57.5 µM), for inactives: at the top dose activity change, negative = active | 340,000 compounds, 1.9% hits; active = well fitted falling curve with a large enough effect; inconclusive = small, poorly fitted or top-dose-only effect; inactive = no such curve, though single readings can be large or run the other way; also: potency is read from the fitted curve at half-maximal effect; the source files actives as falling curves though it sought activators and does not explain the sign; nearly all actives have a fitted effect of over 65% in size; many hits overshoot -100%
# Target sequence (P80244 whole entry, looked up): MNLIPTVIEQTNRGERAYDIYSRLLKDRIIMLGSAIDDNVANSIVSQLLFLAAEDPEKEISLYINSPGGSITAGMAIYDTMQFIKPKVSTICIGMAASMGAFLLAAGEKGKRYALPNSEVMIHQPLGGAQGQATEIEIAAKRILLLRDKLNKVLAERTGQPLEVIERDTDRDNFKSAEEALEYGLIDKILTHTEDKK
#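 Purified B. subtilis ClpP, 10 microg/mL final in Tris/HCl pH8 with KCl, BSA, glycerol and Tween-20, cleaved an Abz/nitrotyrosine-quenched decapeptide. Fluorescence (ex 320, em 430) was read at 0 and 20 min at room temperature. Delta was normalized to 5.8 microM ADEP and DMSO/no-enzyme controls.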
# gsp ag: activates gsp, the McCune-Albright syndrome mutation; gsp mutant cells, cAMP HTRF, 30 min; control for the full effect not named in the record; Potency, µM (doses to about 76.9 µM), inactives show at the highest dose activation (cAMP increase), most hits filed as activators; 340,000 compounds, 0.13% hits; AID 624287; active = well fitted activation curve with a large enough effect; inconclusive = small, poorly fitted or top-dose-only effect, or another doubt; inactive = no such curve, though single readings can be large or run the other way; cell line not stated here;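 also: phosphodiesterase inhibitor Ro 20-1724 added with compounds to block cAMP breakdown; potency is read from the fitted curve at half-maximal effect; nearly all actives have a fitted effect of over 60% in size; about a fifth of the inactives were tested at one dose only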
#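 Cells in DMEM/10% FBS with G418 were pretreated with compounds in DMSO plus […] (300 uM stock) for 30 min at 37C. cAMP was measured by HTRF (cAMP-d2 plus anti-cAMP antibody-K) after 30 min at room temperature.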
# TRPV1 potentiator: enhances activation of the human vanilloid receptor TRPV1; 320,000 compounds, 0.02% hits; TRPV1-expressing cells, Fluo-8 calcium influx, capsaicin EC20 potentiation; host cell line not named in the record; control for the full effect not named in the record; potentiation, % at 8.33 µM; active means potentiation above 80%; inconclusive means 30% to 80%; inactive means below 30%; also: 0% is about no effect
# Target sequence (Q8NER1 whole entry, looked up): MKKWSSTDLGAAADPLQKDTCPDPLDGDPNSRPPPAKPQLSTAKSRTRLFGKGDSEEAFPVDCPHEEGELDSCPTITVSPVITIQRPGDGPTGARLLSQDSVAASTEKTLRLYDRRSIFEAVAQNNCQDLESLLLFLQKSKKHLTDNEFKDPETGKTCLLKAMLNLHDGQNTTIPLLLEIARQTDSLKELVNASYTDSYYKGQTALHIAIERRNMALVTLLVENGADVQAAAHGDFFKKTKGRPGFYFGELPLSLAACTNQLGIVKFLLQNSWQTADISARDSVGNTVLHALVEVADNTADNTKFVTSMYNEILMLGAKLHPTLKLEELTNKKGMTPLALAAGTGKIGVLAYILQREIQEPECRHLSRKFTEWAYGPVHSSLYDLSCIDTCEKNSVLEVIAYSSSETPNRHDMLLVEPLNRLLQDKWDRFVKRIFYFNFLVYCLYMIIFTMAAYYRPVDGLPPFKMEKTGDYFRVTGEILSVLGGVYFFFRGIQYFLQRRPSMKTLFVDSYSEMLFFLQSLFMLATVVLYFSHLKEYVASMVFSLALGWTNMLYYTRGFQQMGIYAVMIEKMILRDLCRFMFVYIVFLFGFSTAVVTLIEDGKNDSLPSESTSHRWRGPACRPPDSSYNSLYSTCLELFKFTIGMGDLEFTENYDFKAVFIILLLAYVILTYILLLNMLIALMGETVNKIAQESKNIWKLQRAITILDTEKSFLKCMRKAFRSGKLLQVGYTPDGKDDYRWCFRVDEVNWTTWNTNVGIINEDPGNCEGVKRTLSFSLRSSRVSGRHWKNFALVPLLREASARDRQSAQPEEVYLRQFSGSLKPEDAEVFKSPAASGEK
#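 Cells expressing TRPV1 were dye-loaded with Fluo-8 and read kinetically: 10 s baseline, 3 min after compound (agonist portion), then 2 min after EC20 capsaicin (allosteric enhancer portion). Calcium-bound dye fluorescence at 480/520 nm.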
# CtBP-E1A inh: blocks the CtBP interaction with E1A | activity change, % (concentration not given with the values) | AlphaScreen GST-E1A/His-CtBP binding, 1536-well; hits give low values; control for the full effect not named in the record | 340,000 compounds, 0.49% hits; in the data active means activity change below about -65%; inconclusive means about -30% to -65%; inactive means above about -30%; also: % is scaled to controls: 0 for no effect and ±100 for the full control effect
#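 Homogeneous bead-based format: GST-tagged E1A captured on glutathione donor beads, His-tagged CtBP on nickel acceptor beads; compounds precede bead addition by 2 h at 37 °C.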
# Sfp inh: blocks B. subtilis Sfp PPTase activity | AID 1490 | Potency, µM, inactives show max response, negative = inhibition, actives largely listed as inhibitors | 310,000 compounds, 3.5% hits | Q9F4F7 | Biochemical Sfp PPTase activity, qHTS; active = well fitted inhibition curve with a large enough effect; inconclusive = small, poorly fitted or top-dose-only effect, or another doubt; inactive = no such curve, though single readings can be large or run the other way;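 also: the enzyme is Sfp with the accession as filed and its product quenches rhodamine fluorescence; potency is read from the fitted curve at half-maximal effect; 0% = enzyme reaction without inhibitor and -100% = no enzyme wells; top concentration of the series not given in the record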
#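 Step 1, compound plus 15 nM Sfp-PPTase, 15 min, room temperature. Step 2, add rhodamine-CoA (5 uM) and BHQ-2-YbbR (12.5 uM). Step 3, read 525/598 nm fluorescence at 0 and 30 min.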
# Menin MLL FP FL: menin-MLL binding inhibition, fluorescein peptide; FP activity change, % at 61.4 µM; Fluorescence polarization, fluorescein-MLL peptide displacement from menin; 290,000 tested, under 10 active; inconclusive = falling polarisation curve, or a change in total fluorescence; inactive = total fluorescence flat and polarisation flat or rising; no compound was filed as active; the % refers to the polarisation; negative = inhibition;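 also: % of control where 0% means no effect; inhibitors lower the polarisation; unlabelled MLL peptide was the positive control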
# gsp antag: gsp mutant antagonism | 340,000 compounds, 0.4% hits | AID 624288 | Potency, µM (doses to about 76.9 µM), for inactives: top-dose activity change, negative = inhibition, usual class: inhibitors | gsp-mutant cells, cAMP HTRF, 30 min; control for the full effect not named in the record; active = falling curve of any shape with a large fitted effect; inconclusive = falling curve, mostly with a smaller effect; inactive = flat or rising curve; cell line not stated here;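 also: intracellular cAMP measured with PDE inhibitor Ro 20-1724 present during compound exposure; potency is read from the fitted curve at half-maximal effect; % is scaled to controls: 0 for no effect and ±100 for the full control effect; nearly all actives have a fitted effect of over 65% in size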
#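 Measurement of cellular cAMP by homogeneous time-resolved fluorescence following a 30 min compound exposure at 37C. The PDE inhibitor […] was present throughout; the assay buffer was DPBS with 0.05% BSA and 0.005% Tween 20.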
# * hit, by the source's call; u = inconclusive; x = not tested or not shown; & = joins results of further samples; [ ] = another dose, or the depositor's remark.
SMILES,ClpP mod,gsp ag,TRPV1 potentiator,CtBP-E1A inh,Sfp inh,Menin MLL FP FL,gsp antag
CC(C)(C)OC(=O)CNC(=O)c1[nH]cnc1C(=O)N[C@@H](CCCCN)C(=O)OC(C)(C)C,-0.7%,u,x,18,x,x,11%
CCOc1ccc(NC(=O)CN2CCN(CC(=O)Nc3ccc(OC)cc3)CC2)cc1,-9.1%&0.9%,-42%[inhibitor],-4,47,6%,4.0,7%
CCOC(=O)c1c(NC(=O)Cn2nnc(-c3ccccc3Cl)n2)sc(C)c1C,-1.8%,-3%,5,-3,12%,-1.2,9%
O=C(Nc1cc(N2CCCCC2)ncn1)c1ccc(F)cc1,0.4%,u,-15,2,16%,0.2,8%
CS(=O)(=O)c1ccc(N2CCN(S(=O)(=O)c3cccs3)CC2)c([N+](=O)[O-])c1,0.8%,-28%,6,x,x,x,-3%
CCOC(=O)CNC(=O)C1(/C=C/c2ccccc2)CC(=O)N1c1ccc(OC)cc1 (stereo not drawn),x,9%,10,-9,3%,-14,-6%
COc1ccccc1NC(=O)N1CCN(C(=O)Nc2ccccc2OC)CC1,0.0%,5%,5,8,7%,5.1,-7%
Cc1cccc(Nc2c(-c3ccc(N4CCOCC4)cc3)nc3ncccn23)c1,0.7%,9%,13,0,-14%,2.5,1%
NC(=O)CCC(=O)N1CCCC(C(=O)c2ccc(C(F)(F)F)cc2)C1 (stereo not drawn),-1.2%,-14%,13,-2,28%,1.6,1%
CN(C)c1cc(N)c2ccccc2n1 (tested in a mixture with another compound),-5.4%,-31%[inhibitor],-7,-19,56µM*,2.2,12%
Cc1cc(C)c(S(=O)(=O)N2CCCOC2CNC(=O)C(=O)NCc2ccncc2)c(C)c1 (stereo not drawn),-1.5%,-20%,-3,-5,5%,2.5,3%
CCC1CCCCN1Cc1ccc(N)cc1 (stereo not drawn),-2.1%,6%,u,8,-5%,-3.7,9%
Cc1ccc(C(C)C)c(OCc2nc(-c3nonc3N)no2)c1,-3.3%,-2%,x,-1,u,1.0,1%
N#Cc1c(-c2ccncc2)c2c([nH]c1=S)CCCC2,-9.6%,-2%,-3,5,5µM*,-12,-4%
CC1(C)CC(=O)C=C(NCCCNC2CCCCC2)C1,-1.9%,10%,9,-7,18%,6.1,9%
COc1ccc(C)cc1S(=O)(=O)N(C)CC(=O)Nc1ccc2c(c1)OCCO2,-0.2%,-26%,3,1,16%,7.2,0%
Cc1cccc(/C=N/n2c(C3CCCCC3)n[nH]c2=S)c1,-1.2%,6%,-4,x,79µM*,1.3,-11%
COc1cc(N2C(=O)CSC23C(=O)Nc2ccccc23)cc(OC)c1OC (stereo not drawn),2.2%,-8%,-3,-1,7%,2.3,-3%
CN(C)c1ccc(/C=c2\sc3nc(-c4ccccc4)nn3c2=O)cc1,x,x,5,x,12%,u,x
COC(=O)c1ccc(C)c(NC(=O)Cc2ccc([N+](=O)[O-])cc2)c1,x,x,-8,x,7%,4.5,x
O=C(c1ccc(-c2ccccc2)cc1)N1CCC(C(=O)N2CCCC2)CC1,-0.2%,-36%[inhibitor],-1,4,-13%,0.5,4%
O=C(CSc1nc(O)cc(=O)n1-c1ccccc1)c1ccc(Br)cc1,1.1%,u,-11,-5,-26%,x,-24%
CC1CN(C(=O)COC(=O)c2ccc(F)cc2Cl)CC(C)O1 (stereo not drawn),x,-8%[15.4 µM],13,0,27%,-0.8,-1%
O=C(NCCc1ccccc1)c1cccnc1,-0.8%,-43%[inhibitor],-11,7,10%,1.8,18%
Cn1c(=O)c(C#N)c(-c2ccccc2)n2cnnc12,0.0%,-4%,0,5,25%,1.2,3%

# New compounds follow
SMILES,ClpP mod,gsp ag,TRPV1 potentiator,CtBP-E1A inh,Sfp inh,Menin MLL FP FL,gsp antag
CC(=O)NCCc1ccc(C(=O)COC(=O)c2cc(C)oc2C)cc1,x,-1%,x,-7,x,x,-4%
COc1cc(C2C(C(=O)c3ccc(C)o3)=C(O)C(=O)N2c2cc(C)on2)ccc1OCc1ccccc1 (stereo not drawn),-3.3%,11%,15,x,8%,0.7,-1%
Cc1ccc(-c2nc(CN(C)C3CCOCC3)c(C)o2)s1,4.3%,-28%,-6,-8,-3%,-4.3,0%
CCOC(=O)CNC(=O)c1cc(OC)cc(OC)c1,x,-14%,-6,0,u,-2.4,3%
COc1cc(C=C(C(C)=O)C(C)=O)ccc1O,-0.1%,-25%,4,2,-13%,1.9,17%
CCS(=O)(=O)N1CCC(C(=O)Nc2cc(Cl)ccc2O)CC1,-1.5%,2%,2,-8,7%,0.1,-4%
CCOC(=O)CC(NC(=O)C(CC)c1ccccc1)c1ccccc1Cl (stereo not drawn),0.5%,-6%[15.4 µM],19,14,15%,-0.6,-8%
Cc1cc(C)cc(NC(=O)CSc2nnnn2-c2cccnc2)c1,x,6%,0,0,22%,-0.5,-4%
Cc1cccnc1-n1c(CCN2C(=O)c3ccccc3C2=O)nc2ccccc2c1=O,-1.6%,1%,4,2,11%,1.8,9%
CC(C)CN(C(=O)C1CC1)C1CCS(=O)(=O)C1 (stereo not drawn),x,37%[15.4 µM],9,3,x,x,5%
Cc1ccc(C(C)C)cc1OCC(=O)N1CCN(C(=O)c2ccco2)CC1,-5.0%,-1%,5,-13,x,x,3%
CCOc1ccc(OCCC(=O)OCC(=O)NC2CC2)cc1,x,52%[15.4 µM],13,6,x,x,-1%
Cn1c(=O)oc2cc(S(=O)(=O)NCc3ccc(Cl)cc3)ccc21,1.8%,-2%,-3,x,2%,x,15%
CCc1ccc(CNc2ccc3c(c2)ncn3C(C)(C)C)cc1,u,5%[15.4 µM],-6,-7,0%,2.6,-11%
CNc1snc(C)c1C(=O)OCC(=O)NCc1ccccc1OC,-0.9%,-3%[15.4 µM],x,7,x,x,3%
CC(C)Nc1ccc(C(CC(N)=O)NC(=O)Cc2cccc3ccccc23)cc1[N+](=O)[O-] (stereo not drawn),0.3%,x,14,7,-26%,-1.8,11%
CCOC(=O)c1ccc(N=c2ssnc2Cl)cc1,x,-5%[15.4 µM],3,-3,-103%,3.3,-26%
Cc1ccc(NC(=O)c2ncc(Cl)c(Cl)c2Cl)cc1C,x,5%[15.4 µM],1,-13,-8%,-1.4,x
CC/C(=N/NC(=O)c1ccc(Br)o1)c1ccc(Cl)cc1,u,16%,-17,-1,-1%,7.0,0%
Cc1cc(Br)ccc1NC(=O)CNC(=O)CN(C)C1CCS(=O)(=O)C1 (stereo not drawn),-0.6%,12%[15.4 µM],u,5,x,x,12%
COc1ccc(S(=O)(=O)N2CCOCC2)cc1C(=O)N1CCCCCC1,-1.1%,-17%,4,-2,8%,x,6%
Clc1ccc(C(c2cccs2)N2CCNCC2)cc1 (stereo not drawn),0.4%,-3%,x,-6,x,x,x
CC(C)(C)c1ccc(C(=O)NCCC(=O)Nc2ccc(S(=O)(=O)Nc3nccs3)cc2)cc1,x,-6%[15.4 µM],19,-5,x,x,5%
COc1ccccc1NC(=O)Cn1cnc2c(cnn2-c2ccccc2)c1=O,-4.9%,u,-8,2,0%,3.1,-17%
N#Cc1cc2c(nc1SCC(=O)N1CCOCC1)CCCCC2,-0.5%,u,-5,17,-17%,1.9,-12%

# Ordered by length of the SMILES (low to high): part of the list above.
SMILES,ClpP mod,gsp ag,TRPV1 potentiator,CtBP-E1A inh,Sfp inh,Menin MLL FP FL,gsp antag
CCOC(=O)CNC(=O)c1cc(OC)cc(OC)c1,x,-14%,-6,0,u,-2.4,3%
N#Cc1cc2c(nc1SCC(=O)N1CCOCC1)CCCCC2,-0.5%,u,-5,17,-17%,1.9,-12%
CCc1ccc(CNc2ccc3c(c2)ncn3C(C)(C)C)cc1,u,5%[15.4 µM],-6,-7,0%,2.6,-11%
CC/C(=N/NC(=O)c1ccc(Br)o1)c1ccc(Cl)cc1,u,16%,-17,-1,-1%,7.0,0%
CCOC(=O)CC(NC(=O)C(CC)c1ccccc1)c1ccccc1Cl (stereo not drawn),0.5%,-6%[15.4 µM],19,14,15%,-0.6,-8%
COc1ccc(S(=O)(=O)N2CCOCC2)cc1C(=O)N1CCCCCC1,-1.1%,-17%,4,-2,8%,x,6%

# Next section.
SMILES,ClpP mod,gsp ag,TRPV1 potentiator,CtBP-E1A inh,Sfp inh,Menin MLL FP FL,gsp antag
CCOC(=O)c1ccc(NC(=O)C2CC(=O)N(c3ccc4c(c3)OCCO4)C2)cc1 (stereo not drawn),-0.2%,1%,-1,-3,x,x,-7%
O=C(CCC1CCCCC1)NCCN1C2=NC[C@H](Cc3ccc(O)cc3)N2C[C@H]1Cc1ccc(O)cc1,-0.5%,x,19,-8,u,x,4%
COc1ccc(Nc2nnc(C)c(=O)[nH]2)c(OC)c1,x,10%,9,9,3%,0.6,6%
Cc1cccc(NC(=O)CN2C(=O)CSC2=O)c1,x,0%[15.4 µM],-3,1,-3%,4.6,9%
CCc1sc(C(=O)N(CCOC)c2c(N)n(Cc3ccccc3)c(=O)[nH]c2=O)cc1C,-9.9%,16%,x,6,x,x,x
O=C(COc1ccccc1)NCC(c1ccco1)N1CCN(c2ccc(F)cc2)CC1 (stereo not drawn),x,6%[15.4 µM],u,-17,x,x,-13%
CC(C)Nc1nc(C#N)nc(NC(C)C)n1,0.2%&0.6%,-1%,15,2,10%,-0.2,-13%
COC(=O)c1cc(Br)ccc1NC(=O)CSCc1c(C)noc1C,-3.4%,9%,3,x,x,x,u
Cc1cc(C)cc(NC(=S)N(CCN2CCCCC2)Cc2ccco2)c1,x,21%[15.4 µM],-12,-4,9%,-0.2,10%
O=C(CC1C(=O)N(c2ccccc2)C(=O)N1C1CCCCC1)Nc1ccccc1 (stereo not drawn),-1.4%,3%,2,-2,-3%,-0.8,-18%
N#CC12CCCCC1CC1CCCCC1(C#N)N2CCO (stereo not drawn),-0.4%,19%,-3,-5,15%,4.3,-7%
CCCCn1c(N)c(N(CCOC)C(=O)c2cc(-c3ccc(OC)cc3)nc3ccccc23)c(=O)[nH]c1=O,11µM*,-13%,-12,-5,x,x,3%
CC(/C=C/c1ccccc1)=N/NC(=O)c1cnccn1,-0.5%,4%,-8,-5,-16%,3.4,-5%
